Arbovirus anti: antivirals against arbovirus infection; AID 1251; actives 0.37% (n = 200,000); inhibition, % at 10 µM; arbovirus infection cell-based antiviral screen;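 active = inhibition from about 30%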;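 note: bluetongue infection of BSR cells; cell survival read as ATP light after 72 h; 0% = infected wells without compound and 100% = uninfected wells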
YopH inh: blocks Yersinia enterocolitica YopH tyrosine phosphatase; fluorescence Ex485/Em525; AID 898; inhibition, %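 (about 10 µM by stock and volumes)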; actives 0.16% (n = 140,000);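 active = inhibition of 50% or more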;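 note: controls were vehicle for no effect and minimum signal wells for full effect; inactives centre near -20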
RecA intein inh: blocks M. tuberculosis RecA intein splicing | P9WHJ3 | cell-free RecA intein splicing, fluorescence | inhibition, %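 (about 9 µM by stock and volumes)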 | actives 0.75% (n = 290,000) | AID 2221; in the data active = inhibition above about 30%; inconclusive = no clear call, values can overlap the other calls;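 note: 0% = vehicle wells and 100% = reference inhibitor control wells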
Target sequence (P9WHJ3 whole entry, looked up): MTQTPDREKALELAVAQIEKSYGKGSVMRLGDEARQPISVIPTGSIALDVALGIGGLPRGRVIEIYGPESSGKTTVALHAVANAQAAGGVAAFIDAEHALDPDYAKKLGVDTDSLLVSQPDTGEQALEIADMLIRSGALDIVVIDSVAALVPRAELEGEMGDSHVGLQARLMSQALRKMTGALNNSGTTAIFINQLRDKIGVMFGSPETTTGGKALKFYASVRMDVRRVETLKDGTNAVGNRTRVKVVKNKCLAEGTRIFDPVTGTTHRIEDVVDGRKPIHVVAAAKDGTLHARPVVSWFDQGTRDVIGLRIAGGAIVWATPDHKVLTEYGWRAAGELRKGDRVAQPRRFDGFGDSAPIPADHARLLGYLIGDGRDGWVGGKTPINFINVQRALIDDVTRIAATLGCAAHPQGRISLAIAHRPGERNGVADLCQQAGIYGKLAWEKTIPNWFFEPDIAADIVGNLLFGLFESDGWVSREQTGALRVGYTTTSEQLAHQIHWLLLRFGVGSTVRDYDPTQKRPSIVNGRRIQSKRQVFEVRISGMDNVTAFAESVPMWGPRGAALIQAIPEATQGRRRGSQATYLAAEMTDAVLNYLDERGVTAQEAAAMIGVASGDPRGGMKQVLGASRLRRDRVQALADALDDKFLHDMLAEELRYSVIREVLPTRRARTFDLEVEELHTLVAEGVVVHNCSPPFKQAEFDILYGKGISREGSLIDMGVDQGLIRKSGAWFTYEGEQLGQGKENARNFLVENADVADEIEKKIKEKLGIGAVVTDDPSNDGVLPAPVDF
Mtb bLac sens: beta-lactam sensitization of Mtb H37Rv; M. tuberculosis H37Rv growth with meropenem, percent inhibition; hits of this screen are not shown here; inhibition, % at 25 µM; actives 0.27% (n = 330,000); AID 434955;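 active = about 74% or more and at least 40 points above the plate without the antibiotic, then above 30% in a dose series; inconclusive = first-round hits that could not be retested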;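 note: growth measured after seven days incubation then overnight dye step; 0% = bacteria only wells and 100% = bacteria with antibiotic; twin plates without the antibiotic show which effects depend on it; some results filed as inactive read as strong as hits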
Mtb H37Rv: M. tuberculosis H37Rv growth inhibitors, H37Rv strain (AID 1626); M. tuberculosis H37Rv growth inhibition; higher % means a stronger effect; inhibition, % at 10 µM; hits with a dose series show IC50 in µM; actives 0.95% (n = 220,000);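 active = confirmed in a dose series; inconclusive = inhibition above 80% but not taken into the dose series; inactive = below 80% or under 30% at every dose of the series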;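 note: bacteria incubated seven days before Alamar blue readout; 0% = bacteria only wells and 100% = bacteria with antibiotic wells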
Arbovirus anti repeat: further read-out of Arbovirus anti, marked with its call; inhibition, %; measured here: 10K subset replicate screen; many hits read low in the repeat;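 first of two repeat runs on a subset; 0% = infected and 100% = uninfected wells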
Active calls of the source: *; ? = inconclusive; . = not tested or not shown. An excerpt, so the mix of outcomes need not match the whole.

SMILES | Arbovirus anti | YopH inh | RecA intein inh | Mtb bLac sens | Mtb H37Rv | others
CC(C)(C)C1C/C(=C/c2ccco2)C(=O)/C(=C/c2ccco2)C1 (centres undefined) | -31.9 | 2.6 | . | 8.2 | 0.2%
O=C(CCCNS(=O)(=O)c1ccc(Br)cc1)N1CC[C@@]2(O)CCCC[C@H]2C1 | -1.3 | 2.1 | . | -9.4 | -7.1%
CC1CCCN(S(=O)(=O)c2cnc[nH]2)C1 (centres undefined) | . | . | -1.3 | -2.7 | .
Cc1ccc(-c2csc(N(Cc3ccccc3)C(=O)COc3ccccc3)n2)cc1 | -0.9 | -26.0 | -2.0 | 4.5 | -4.5%
Cc1cc2c3c(c1C)C1(C(=O)N3C(C)(C)CC2C)C(C#N)=C(N)Oc2cc(O)ccc21 (centres undefined) | -33.3 | -5.3 | 11.0 | 25.4 | 6.8%
CCOc1cccc(NC(=O)Cc2cccs2)c1 | -5.0 | -31.3 | 1.8 | 1.1 | -1.9% | Arbovirus anti repeat=-2.4
CN1CCN(Cc2nc3ccccc3c(=O)[nH]2)CC1 | 4.5 | 3.6 | -3.3 | -0.9 | -6.3%
CCCCn1c(N)c(N(CC(C)C)C(=O)CN(C)S(=O)(=O)c2ccc(C)cc2)c(=O)[nH]c1=O | . | . | 1.9 | 0.2 | .
COc1cc([N+](=O)[O-])cc2sc(NC(=O)C(C)(C)C)nc12 | -5.0 | . | -4.4 | -6.5 | 3.2%
O=C(O)CCc1ccc(-c2ccccc2)n1NC(=O)c1ccco1 | 11.1 | -38.0 | -0.3 | -3.3 | -5.0%
COc1cc(/C=C2/SC(=S)N(CC3CCCO3)C2=O)ccc1O (centres undefined) | 7.2 | -32.0 | 9.0 | 36.2 | 7.4%
CCCCn1c(N)c(N(CC(C)C)C(=O)c2ccc(OCC3CCCO3)cc2)c(=O)[nH]c1=O (centres undefined) | . | . | -11.1 | -7.1 | .
COc1cccc(CNC(=O)CN(C)S(=O)(=O)c2cccc3cccnc23)c1 | . | . | -3.4 | -2.9 | -4.2%
COCCCNC(=S)N1CCN(c2nc(-c3cccc(OC)c3)cs2)CC1 | . | . | 4.5 | 45.0 | .
CNc1nc(-c2c(C)[nH]c3ccc(OC)cc23)cs1 | . | . | 3.0 | -7.6 | .
O=C(N=Nc1c(O)n(C2OC(=O)c3ccccc32)c2ccccc12)c1ccco1 (centres undefined) | . | . | 1.6 | -3.5 | -10.1%
Cc1cc(C)n(-c2nc3c(c(=O)[nH]c(=O)n3C)n2Cc2ccc(F)cc2)n1 | -0.1 | 6.2 | 3.2 | 3.4 | -16.3%
O=C(Oc1ccc(-c2cnc3ccccc3n2)cc1)c1ccco1 | -4.8 | -24.6 | 7.6 | 52.3 | 7.4%
CCCN(CCC)C(=O)C1CC(=O)OC12CCOC(C)(C)C2 (centres undefined) | -1.4 | -4.8 | 4.2 | 5.8 | -0.8%
C/C(=N\OCC(=O)O)c1ccc(Cl)cc1 | . | . | -0.4 | 0.9 | -2.0%
COc1ccc2nc(/N=C(\N)NC(=O)C(C)(C)C)nc(C)c2c1 | 5.0 | -36.7 | -5.4 | 95.7 | 14.9%
COC(=O)c1c(NC(=O)c2ccccc2)sc(C(N)=O)c1C | -26.1 | . | 0.7 | -3.6 | -3.9%
OC1CCCN(C(=S)NCc2ccccc2)C1 (centres undefined) | 2.0 | . | . | 1.2 | -5.0%
O=c1c(-c2cccc([N+](=O)[O-])c2)[n+]([O-])c2ccccc2n1O | . | . | -0.4 | 1.0 | -2.7%
CC(C)C(OC(=O)c1ccco1)C(=O)NC1CCCCC1 (centres undefined) | 15.9 | -4.2 | 1.4 | 1.5 | -5.0%
O=C(NCC1CCCO1)c1ccccc1S(=O)(=O)c1ccc([N+](=O)[O-])cc1 (centres undefined) | 6.7 | . | -3.0 | -3.9 | 2.5%
O=C(O)c1cc2cccc(S(=O)(=O)N3CCCCC3)c2cc1O | . | . | -19.9 | 1.2 | .
O=C(CSC(=S)N1CCOCC1)c1ccccc1 | 1.0 | -25.6 | -0.3 | 0.0 | -2.2%
O=C(NC(=S)Nc1ccc2oc(=O)ccc2c1)c1ccco1 | . | . | -1.9 | -9.4 | -2.1%
COc1ccccc1NC(=O)CSc1nccc(=O)[nH]1 | 6.6 | 19.1 | -0.3 | -6.3 | -4.3%
COc1ccc(C2(O)CC3CCC(C2)N3c2cc(C)nc(-c3ccccc3)n2)cc1 (centres undefined) | -24.6 | -51.2 | 16.9 | 19.0 | 17.5µM*
Cn1ccnc1/C(=N\NC(=O)c1ccccc1)c1cccc([N+](=O)[O-])c1 | -12.8 | . | 1.0 | -2.0 | -5.3%
CC[n+]1c(P(=O)([O-])c2ccccc2)[nH]c2ccccc21 | 5.1 | -20.2 | . | -3.5 | -4.1%
CCOC(=O)C1(CC2CCCCO2)CCN(Cc2cc3ccccc3[nH]2)CC1 (centres undefined) | 26.2 | . | 1.2 | -11.5 | -0.6%
COCCN=C1NN=C(c2ccc(C)c([N+](=O)[O-])c2)CS1 | 1.6 | . | . | 10.3 | -3.0%
CC1CCN(C(=O)CCc2ccc(S(=O)(=O)NC(C)C)cc2)CC1 | 3.0 | -19.4 | -1.3 | -0.7 | -6.0%
CCCCCCN=C(C)c1c(O)n(CCCC)c(=O)[nH]c1=O | -7.8 | -55.9 | -2.5 | -4.1 | 4.7%
COC(=O)c1ccc(N2C(=O)CC(N3CCC(O)(c4ccc(Br)cc4)CC3)C2=O)cc1 (centres undefined) | 2.0 | -6.1 | -1.4 | -3.3 | -1.6%
O=C(COC(=O)CCSc1ccccc1)Nc1cc(F)ccc1F | 4.7 | . | 1.3 | -0.5 | 3.9%
CCN(CC)CC1(O)CCN(C(=O)c2ccc(Cl)c(Cl)c2)CC1 | -1.8 | . | 0.4 | -3.6 | -0.4%
Cc1cc(CNC(=O)c2cc(COc3ccc(F)c(F)c3)on2)nn1C | . | . | 3.3 | ? | .
O=[N+]([O-])c1ccc(F)c(N=Cc2ccc(Br)s2)c1 | -2.6 | -22.1 | 0.0 | -2.3 | 0.6%
Cc1cc(C)c(COCc2cc(/C=N/O)c(C)cc2C)cc1/C=N/O | -0.3 | -13.9 | -2.1 | 1.6 | 10.5%
Cc1cc(NS(C)(=O)=O)c(=O)n(Cc2c(F)cccc2Cl)c1 | . | . | 2.5 | -1.1 | .
O=C(CNC(=O)c1ccco1)N/N=C/c1ccccc1[N+](=O)[O-] | -1.0 | . | -0.6 | 4.0 | -1.1%
COCCCNC(=S)N/N=C/c1ccc(N(C)C)cc1 | -1.1 | . | -7.5 | 0.4 | -9.6%
CCC(=NCCCN(CC)CC)c1c(O)n(C2CCCCC2)c(=O)[nH]c1=O | -3.7 | -22.0 | 2.3 | 2.4 | 0.4%
CCOC(=O)c1sc2nc(CSc3ccccc3)nc(N3CCCN(C)CC3)c2c1C | -33.5 | . | 6.3 | 99.7 | 5.79µM*
O=C(COC(=O)C12CC3CC(CC(C3)C1)C2)Nc1nc2c(F)c(F)c(F)cc2s1 | -5.3 | -27.1 | -0.3 | 1.2 | 2.4%
Cc1ccc(CN2C(=O)CCSc3ccc(Cl)cc32)cc1 | -8.4 | 7.8 | 14.5 | -1.1 | -3.5%
COc1cccc(C2=NC(C)(C)NC(c3ccccc3O)C2)c1 (centres undefined) | -3.1 | 5.1 | 2.7 | 94.9 | 4.8%
CCCCc1ccc(NC(=S)NCc2ccc(OC)cc2)cc1 | -4.6 | . | -0.5 | 27.4 | 77.0%
Cc1cc(=O)oc2cc(OCC(=O)N3c4ccccc4CC3C)ccc12 (centres undefined) | -21.8 | -37.8 | -0.2 | -9.3 | -10.0%
COc1ccc(COCC(O)CN2CCC(C(N)=O)CC2)cc1OC (centres undefined) | 11.8 | . | 1.5 | 1.1 | 2.3%
Nc1ccc(Cl)c(S(=O)(=O)Nc2ccc(Cl)cc2)c1 | . | . | 4.7 | -4.8 | -3.2%
CC1(C)CC(=O)C2=C(C1)N(c1ccc(F)cc1)C(=O)C2(NC(=O)c1ccccc1F)C(F)(F)F (centres undefined) | -3.6 | -0.7 | -2.9 | 1.9 | 3.2%
C/C(CC(=O)NCCCN1CCOCC1)=N\NC(=O)COc1cccc2ccccc12 | 1.9 | -30.1 | 2.9 | 0.0 | 64.9%
CCOc1ccc(NC(=O)c2cn(-c3ccc(OCC)cc3)c(=O)c3cc(OC)c(OC)cc23)cc1 | -7.0 | -15.3 | 6.4 | -9.2 | 9.6%
CCC1CCCCN1C(=O)CSc1nnc(CNC(=O)c2c(F)cccc2Cl)o1 (centres undefined) | . | . | -7.5 | -1.3 | .
O=C(CSc1nnc(Nc2ccccc2)s1)Nc1ccc(S(=O)(=O)N2CCOCC2)cc1 | -0.2 | 1.5 | 2.7 | -4.0 | -1.9%
Continued:
SMILES | Arbovirus anti | YopH inh | RecA intein inh | Mtb bLac sens | Mtb H37Rv | others
Cc1ccc(NC(=O)c2ccco2)c(NC(=O)c2ccc(Cl)cc2)c1 | . | . | -0.5 | 1.7 | .
COc1ccccc1CNC(=O)c1nccnc1CO | . | . | 1.9 | -5.8 | .
NC(=O)C1CC(=O)N(c2ccc(OCC(=O)Nc3cccc(C(F)(F)F)c3)cc2)C1 (centres undefined) | 4.3 | -9.3 | -2.0 | 0.7 | 4.4%
Cc1ccccc1C(=O)N1CCC(C(=O)Nc2ccccc2N2CCCC2)CC1 | . | . | 0.6 | -13.6 | .
COC(=O)c1ccccc1NC(=O)CSc1nncn1-c1ccccn1 | . | . | 0.8 | -5.4 | .
COc1ccc(NC(=O)CCc2nc(-c3ccc(C)cc3)no2)c(OC)c1 | -15.7 | 24.1 | -1.7 | 63.4 | 51.6%
O=c1[nH]c(CSc2nnc3ccccn23)nc2cc(C(F)(F)F)ccc12 | 3.8 | . | -2.4 | -3.8 | 5.5%
CCOC(=O)/C(=N\Nc1ccccc1Cl)N1CCN(C)CC1 | -15.5 | -13.6 | -1.6 | 2.8 | 9.3%
Cc1cc(C(=O)OCC(=O)N2CC(=O)Nc3ccccc32)no1 | -3.0 | -48.8 | 2.6 | 1.2 | -9.6%
O=C(C1CCCO1)N1CCN(c2c3c(nc4cc(-c5ccc(F)cc5)nn24)CCC3)CC1 (centres undefined) | -4.8 | -39.5 | -6.4 | 0.8 | 0.6%
COc1ccccc1N1CCN(C(=O)c2cc(C3CC3)on2)CC1 | -3.0 | -8.1 | 0.9 | 2.9 | -4.2% | Arbovirus anti repeat=-0.9
COc1cc(C2N(c3ccc(Cl)cc3)C(=O)C3CCCN32)cc(OC)c1OC (centres undefined) | 3.3 | -23.1 | 0.1 | -4.0 | -7.1% | Arbovirus anti repeat=-1.6
Cc1ccccc1-c1nc(CN2CCC(C(=O)NCCCN3CCOCC3)CC2)c(C)o1 | -5.5 | -23.9 | 1.3 | -1.8 | -5.6%
O=C(N/N=C\c1ccccc1)c1ccccc1-n1cccc1 | 3.2 | . | . | 45.3 | -1.4%
CC(=O)c1ccc(N2CCN(C(=S)Nc3ccccc3)CC2)cc1 | 10.2 | -11.7 | 0.0 | -5.0 | 4.8%
O=C(Cc1ccc(Cl)cc1)Nc1ccc(SC(F)F)cc1 | -0.8 | 2.1 | 0.7 | 7.5 | 6.4%

Ordered by heavy-atom count (lowest first): some entries from above.
SMILES | Arbovirus anti | YopH inh | RecA intein inh | Mtb bLac sens | Mtb H37Rv | others
COc1ccccc1CNC(=O)c1nccnc1CO | . | . | 1.9 | -5.8 | .
O=C(Cc1ccc(Cl)cc1)Nc1ccc(SC(F)F)cc1 | -0.8 | 2.1 | 0.7 | 7.5 | 6.4%
CCOC(=O)/C(=N\Nc1ccccc1Cl)N1CCN(C)CC1 | -15.5 | -13.6 | -1.6 | 2.8 | 9.3%
CC(=O)c1ccc(N2CCN(C(=S)Nc3ccccc3)CC2)cc1 | 10.2 | -11.7 | 0.0 | -5.0 | 4.8%
Cc1ccc(NC(=O)c2ccco2)c(NC(=O)c2ccc(Cl)cc2)c1 | . | . | -0.5 | 1.7 | .
O=c1[nH]c(CSc2nnc3ccccn23)nc2cc(C(F)(F)F)ccc12 | 3.8 | . | -2.4 | -3.8 | 5.5%
COc1ccc(NC(=O)CCc2nc(-c3ccc(C)cc3)no2)c(OC)c1 | -15.7 | 24.1 | -1.7 | 63.4 | 51.6%
COc1cc(C2N(c3ccc(Cl)cc3)C(=O)C3CCCN32)cc(OC)c1OC (centres undefined) | 3.3 | -23.1 | 0.1 | -4.0 | -7.1% | Arbovirus anti repeat=-1.6
Cc1ccccc1C(=O)N1CCC(C(=O)Nc2ccccc2N2CCCC2)CC1 | . | . | 0.6 | -13.6 | .
O=C(C1CCCO1)N1CCN(c2c3c(nc4cc(-c5ccc(F)cc5)nn24)CCC3)CC1 (centres undefined) | -4.8 | -39.5 | -6.4 | 0.8 | 0.6%
